# HIV Env fusion: blocks HIV Env-driven cell-cell fusion; inhibition, % at 12.3 µM; 1.1% of 360,000 active; AID 651610; HeLa-JRFL Env/CEM21 cell fusion, luciferase;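 active = mean replicate inhibition score of at least 50 and every replicate individually at or above 50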;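 also: 0% = plate neutral controls and 100% = maraviroc near 300 nM; one replicate is shown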
# MT1-MMP act inh: MT1-MMP (human) activation inhibition; HT1080 RFP-PRO-GFP cells, GFP/RFP ratio fluorescence, overnight; percent of plate control window, DMSO zero; 0.061% of 360,000 active; GFP/RFP ratio change, % at 20 µM; P50281;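 active = GFP/RFP ratio change of at least 30% with cell ATP level not reduced by more than half and red fluorescence within 50% of control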; also: strong numbers were not always called active
#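 Assay system: HT1080 RFP-PRO-GFP cells. Benchmarks: DMSO vehicle wells and RFP-L50D-GFP reporter cell wells. Times: overnight cell settling, then overnight compound exposure, 37 °C, 5% CO2. Compound: 20 µM single dose, 1% DMSO. Read-out basis: GFP/RFP fluorescence ratio.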
# PABP polyA inh: blocks human PABP binding to poly(A) RNA; P11940; AID 2014; inhibition, % at 35 µM; 1% of 290,000 active; fluorescence polarization;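 active = 50% or more with normal probe brightness, or confirmed in later tests; about a fifth of its hits are not listed in these tables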;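 also: calls also rest on retests at 20 µM and on dose response follow-up; controls were probe without protein and protein plus probe with vehicle; some compounds called inactive have numbers as strong as hits; many hits fall short of the cut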
# Target sequence (P11940 whole entry, looked up): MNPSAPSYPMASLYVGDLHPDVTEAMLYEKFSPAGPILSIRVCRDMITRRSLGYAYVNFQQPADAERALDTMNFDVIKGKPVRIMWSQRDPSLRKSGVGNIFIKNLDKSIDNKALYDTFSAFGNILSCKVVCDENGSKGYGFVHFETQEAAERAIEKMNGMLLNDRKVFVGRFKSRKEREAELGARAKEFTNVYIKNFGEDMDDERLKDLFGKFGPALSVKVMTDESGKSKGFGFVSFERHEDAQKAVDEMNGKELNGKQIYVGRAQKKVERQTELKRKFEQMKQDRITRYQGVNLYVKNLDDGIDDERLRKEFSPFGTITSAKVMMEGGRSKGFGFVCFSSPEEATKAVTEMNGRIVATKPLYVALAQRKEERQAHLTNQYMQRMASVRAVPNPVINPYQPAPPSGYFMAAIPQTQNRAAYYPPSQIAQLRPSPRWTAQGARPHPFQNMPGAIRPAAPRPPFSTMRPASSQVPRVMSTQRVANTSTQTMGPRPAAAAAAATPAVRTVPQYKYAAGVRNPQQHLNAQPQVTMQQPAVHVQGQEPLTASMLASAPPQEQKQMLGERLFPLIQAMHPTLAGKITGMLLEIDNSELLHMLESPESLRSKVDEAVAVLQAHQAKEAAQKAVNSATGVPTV
# CSC inhib: cancer stem cell inhibition. 1.1% of 300,000 active. cancer stem cell-like cells viability, luminescence. inhibition, % at 7.5 µM;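 active = mean at 75% or more and at least half the replicates too; tested in HMLE shEcad cells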;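 also: 0% = median of negative and 100% = median of positive control wells; the first replicate is given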
# Rce1 inhib: inhibitors of yeast Ras-converting enzyme. yeast membranes, quenched prenylated peptide cleavage fluorescence. 0.27% of 290,000 active. calls only;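 active = fall in fluorescence gain of 50% or more versus controls, with final raw signal at or below 3038400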;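 also: plate controls were neutral control wells for no effect and wells lacking membranes for full effect; tested at 10 µM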
# Yeast UUG start: modulators of start codon recognition fidelity in yeast; S. cerevisiae UUG-firefly luciferase reporter, luminescence/redox ratio; activity score, % at 18.7 µM; 0.13% of 350,000 active; AID 602363;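 active = replicate mean at a twofold rise or more, about +100% in these data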;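 also: firefly luciferase made from a UUG start codon reports start codon fidelity; reporter light over untreated wells divided by growth signal over untreated wells; some hits fall short of that in this replicate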
# eIF4H inh: inhibitors of RNA binding by human eIF4H; Q15056; eIF4H fluorescence polarization binding assay; inhibition, % at 35 µM; 0.94% of 290,000 active; AID 2012;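 active = 50% or more with normal probe brightness, or confirmed in later tests; about a fifth of its hits are not listed in these tables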;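 also: calls also rest on retests at 20 µM and on dose response follow-up; 0% = protein and probe with vehicle and 100% = probe without protein; strong numbers were not always called active; many hits fall short of the cut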
# eIF4H inh retest: recorded beside eIF4H inh, whose call it bears; inhibition, %; compound at 20 µM; confirmation average;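 mean of two retest wells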
# PABP polyA inh retest: second read-out of PABP polyA inh, no call of its own (marks repeat the call); inhibition, %; compound at 20 µM; confirmation repeats;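 mean of two retest wells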
# MT1-MMP act inh RFP: also measured in MT1-MMP act inh; calls as there; RFP signal change, %; measured here: RFP expression control read;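 0 = vehicle wells; hits needed this value within 50% of zero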
# * hit, by the source's call; i = inactive; . = no result given. Not all compounds are listed. The share of hits here may be higher or lower than overall.
SMILES,HIV Env fusion,MT1-MMP act inh,MT1-MMP act inh RFP,PABP polyA inh,CSC inhib,Rce1 inhib,Yeast UUG start,eIF4H inh,others
CN(CC(=O)N1CCc2[nH]c3ccc(F)cc3c2C1)CC1OCCO1,-57,.,.,18,9,i,.,8,
COc1cc(/C=C2\S/C(=N/S(=O)(=O)Cc3ccccc3)NC2=O)c([N+](=O)[O-])cc1OC,12,-7,6,24,8,i,-13,1,
Cc1ccc(C2(C(F)(F)F)NC(=O)N3CCN=C3S2)cc1 (stereo unspecified),-75,8,5,5,-5,i,18,4,
CCCCCCC(=O)Nc1c(O)c2ccccc2[nH]c1=O,-66,-2,-3,-3,-6,i,.,-1,
COc1ccc(NC(=O)NNS(=O)(=O)c2ccc(Br)cc2)cc1,-3,2,4,-2,-7,i,-10,-4,
CC[C@]12c3[nH]c4ccc(Cl)cc4c3CCN1C(=O)[C@@H](CC(=O)NCCCn1ccnc1)C[C@@H]2C(=O)N1CCN(C(=O)c2ccco2)CC1,-16,3,5,.,.,.,-2,.,
CCOc1ccc2[nH]c3c(N4CCN(c5ccccn5)CC4)ncnc3c2c1,28,14,-4,-1,47,i,-7,1,
COc1ccc(C)cc1S(=O)(=O)Nc1ccccc1,.,3,1,7,7,i,.,-2,
Cc1onc(-c2c(Cl)cccc2Cl)c1C(=O)N1CCCc2ccccc21,.,3,-1,-4,26,i,-4,-10,
CN(c1ccc(OCC(=O)OCC(=O)NCc2ccco2)cc1)S(=O)(=O)c1ccc2ccccc2c1,5,-4,-4,3,-6,i,-21,-2,
N#C/C(=N\Nc1ccc(S(=O)(=O)N2CCc3ccccc32)cc1)C(N)=S,35,-1,-22,-14,3,i,-19,12,
CCCS(=O)(=O)N1CCCC(C(=O)NCC2CCCO2)C1 (stereo unspecified),.,-1,1,-1,7,i,-3,1,
CCc1cc(C(=O)NCCN(C)C)cs1,.,4,0,-1,-3,i,-6,-16,
COc1ccc(-c2cc(C(=O)Nc3ccc(OC)c(OC)c3)no2)cc1,-64,-3,2,50,-2,i,2,12,eIF4H inh retest=-6;PABP polyA inh retest=3
CCOC(=O)c1ccc(NC(=O)CSc2nnc(CNc3ccc(OC)cc3)n2C)cc1,-12,-1,1,6,-1,i,.,-12,
CCNC(=O)C(=O)NCC(c1cccs1)S(=O)(=O)c1ccc(C)cc1 (stereo unspecified),-4,0,-1,4,2,i,-9,-4,
OCCSc1nc(-c2ccccc2)nc2ccc(F)cc12,-5,2,1,6,13,i,.,-1,
O=C(CSc1nnc2ccc(-c3ccc(F)cc3)nn12)NCC1CCCO1 (stereo unspecified),8,3,4,.,-14,i,.,.,
C=CCn1c(-c2ccc(Cl)cc2)cnc1SC(C)C(=O)NC(N)=O (stereo unspecified),-19,-6,-7,-3,-7,i,-20,-6,
COc1ccc(CC(=O)N2CCN(S(=O)(=O)c3cccs3)CC2)cc1OC,3,-2,0,0,-10,i,.,-10,
CCC(C)(C)C1CCC2(CC1)NC(=O)N(CC(=O)Nc1nc(-c3ccc(C)cc3)cs1)C2=O (stereo unspecified),.,0,-2,8,.,i,-16,-3,
O=S(=O)(c1cnc[nH]1)N1CCN(c2ccc(Cl)cc2)CC1,6,-2,0,2,2,i,-5,5,
COC(=O)CSc1nnc(-c2ccco2)o1,.,3,9,1,.,i,5,-9,
CC(C)OCC(O)CS(=O)Cc1ccccc1 (stereo unspecified),.,6,4,-6,-5,i,-22,-5,
O=C(Cc1ccccc1)N1CCN(C(=O)c2ccco2)CC1,.,-5,0,-8,6,i,.,-2,
Cc1cnc(C(=O)Nc2cccc(S(=O)(=O)N(C)C)c2)cn1,1,-4,-2,0,-7,i,-9,1,
COCCCN(C(=O)CSCc1c(C)noc1C)c1c(N)n(Cc2ccccc2)c(=O)[nH]c1=O,-20,-6,0,.,-8,i,-9,.,
COc1ccc(NC(=O)CSc2nc(NS(=O)(=O)c3ccc(C)cc3)cc(=O)[nH]2)cc1,-17,6,4,17,5,i,-12,8,
O=C(Nc1cccc(F)c1)c1cccnc1N1CCOCC1,-26,3,3,-2,-13,i,-7,1,
O=C(O)c1ccccc1-c1ccccc1C(=O)Nc1ccccc1Br,6,-6,2,-2,-2,i,-9,-5,
COc1cc(NC(=O)c2cccs2)cc(OC)c1,.,1,2,2,-5,i,-33,-2,
Cn1cccc1C(=O)c1cccc([N+](=O)[O-])c1,-6,-2,-1,5,-6,i,.,2,
Cc1ccc(NC(=O)CN2C(=O)c3ccccc3C2=O)cc1,-35,1,1,10,-1,i,-6,0,
Cc1cc2oc(=O)cc(Cn3ccnc3)c2cc1O,.,-1,0,1,-3,i,-13,-4,
O=C(OCCCOC(=O)c1ccc(O)cc1)c1ccc(O)cc1,-7,-5,2,0,16,i,-6,-4,
COc1cc(NC(=O)c2ccco2)c(OC)cc1NC(=O)Nc1ccc(Cl)cc1,.,7,-2,-11,-7,i,-8,-16,
O=C(CSc1n[nH]c(-c2cccnc2)n1)OC1CCCCC1,2,-1,-4,0,-4,i,.,13,
COc1cc(NC(=O)c2ccc3c(c2)OCO3)ccc1NC(=O)c1ccco1,.,2,2,-10,16,i,13,-6,
COc1ccc(CNC(=O)O[C@@H]2C[C@H]3C(=O)N(c4ccccc4)C(=O)[C@H]3[C@@]3(CN(S(=O)(=O)c4ccc(C)cc4)C[C@H]3C)[C@@H]2O)cc1OC,-73,-7,-1,.,.,.,-5,.,
CC(=O)Nc1ccc(OS(=O)(=O)c2ccc(C(C)(C)C)cc2)cc1,.,.,.,0,18,i,.,-12,

# Some of these compounds in order of length of the SMILES, low to high:
SMILES,HIV Env fusion,MT1-MMP act inh,MT1-MMP act inh RFP,PABP polyA inh,CSC inhib,Rce1 inhib,Yeast UUG start,eIF4H inh,others
CCc1cc(C(=O)NCCN(C)C)cs1,.,4,0,-1,-3,i,-6,-16,
COC(=O)CSc1nnc(-c2ccco2)o1,.,3,9,1,.,i,5,-9,
CCCCCCC(=O)Nc1c(O)c2ccccc2[nH]c1=O,-66,-2,-3,-3,-6,i,.,-1,
O=C(Cc1ccccc1)N1CCN(C(=O)c2ccco2)CC1,.,-5,0,-8,6,i,.,-2,
Cc1ccc(NC(=O)CN2C(=O)c3ccccc3C2=O)cc1,-35,1,1,10,-1,i,-6,0,
Cc1ccc(C2(C(F)(F)F)NC(=O)N3CCN=C3S2)cc1 (stereo unspecified),-75,8,5,5,-5,i,18,4,
O=S(=O)(c1cnc[nH]1)N1CCN(c2ccc(Cl)cc2)CC1,6,-2,0,2,2,i,-5,5,
C=CCn1c(-c2ccc(Cl)cc2)cnc1SC(C)C(=O)NC(N)=O (stereo unspecified),-19,-6,-7,-3,-7,i,-20,-6,
COc1ccc(-c2cc(C(=O)Nc3ccc(OC)c(OC)c3)no2)cc1,-64,-3,2,50,-2,i,2,12,eIF4H inh retest=-6;PABP polyA inh retest=3
CCNC(=O)C(=O)NCC(c1cccs1)S(=O)(=O)c1ccc(C)cc1 (stereo unspecified),-4,0,-1,4,2,i,-9,-4,
COc1ccc(CC(=O)N2CCN(S(=O)(=O)c3cccs3)CC2)cc1OC,3,-2,0,0,-10,i,.,-10,
COc1ccc(NC(=O)CSc2nc(NS(=O)(=O)c3ccc(C)cc3)cc(=O)[nH]2)cc1,-17,6,4,17,5,i,-12,8,
CCC(C)(C)C1CCC2(CC1)NC(=O)N(CC(=O)Nc1nc(-c3ccc(C)cc3)cs1)C2=O (stereo unspecified),.,0,-2,8,.,i,-16,-3,
COc1cc(/C=C2\S/C(=N/S(=O)(=O)Cc3ccccc3)NC2=O)c([N+](=O)[O-])cc1OC,12,-7,6,24,8,i,-13,1,
CC[C@]12c3[nH]c4ccc(Cl)cc4c3CCN1C(=O)[C@@H](CC(=O)NCCCn1ccnc1)C[C@@H]2C(=O)N1CCN(C(=O)c2ccco2)CC1,-16,3,5,.,.,.,-2,.,

# (further entries)
SMILES,HIV Env fusion,MT1-MMP act inh,MT1-MMP act inh RFP,PABP polyA inh,CSC inhib,Rce1 inhib,Yeast UUG start,eIF4H inh,others
Cc1ccc(C(=O)NCCCC(=O)O)o1,-30,-3,3,-1,-19,i,-12,-20,
Cc1onc(-c2ccccc2Cl)c1C(=O)NCCN1Cc2ccccc2C1=O,.,-3,-3,-4,-1,i,.,6,
Cc1cc(C)n2cc(CSc3nc4ccccc4[nH]3)nc2n1,.,-1,-2,-5,-10,i,.,15,
COc1ccc(C2CC(c3ccc(Br)cc3)=NN2C(=S)Nc2ccccc2)cc1 (stereo unspecified),2,1,-2,-1,7,i,-14,-2,
O=C(CNC(=O)c1cccs1)OCC(=O)c1ccc2ccccc2c1,-421,-3,2,-6,-5,i,-5,-8,
COC(=O)c1cccc(NC(=O)Nc2ccc(Cl)cc2)c1,-18,-7,-22,-11,5,i,8,-10,
O=C(Cn1ccccc1=O)c1ccc(Cl)cc1,3,-3,0,1,-11,i,.,-12,
CS(=O)(=O)NCCCCCCNS(C)(=O)=O,-17,0,4,-9,-13,i,.,3,
ClC1(Cl)CC1CSc1nnc(-c2ccncc2)o1 (stereo unspecified),2,-10,-11,6,-2,i,-19,-7,
COCCN(C(=S)Nc1ccc(OC)cc1)C1CCN(C(C)=O)CC1,-15,0,2,-2,-4,i,.,-2,
O=C(OCC1OC2OC3(CCCCC3)OC2C2OC3(CCCCC3)OC12)c1ccccc1 (stereo unspecified),3,-8,-2,-12,0,i,2,-2,
C/C(CC(=O)Nc1cc(Cl)ccc1C)=N\NC(=O)C(=O)N1CCCC1,-3,2,7,-2,10,i,-14,-1,
COc1ccc(S(=O)(=O)N2CCCCCC2)cc1C(=O)Nc1ccc(C)cn1,20,4,3,.,.,i,.,.,
C[C@H](NC(=O)CCC1CCC(=O)N1)c1ccccc1 (stereo partly specified),-7,1,1,.,-13,i,-8,.,
CCOc1ccc(C(=S)N2CCCC2)c(OCC)c1,5,-2,3,-1,6,i,-10,4,
CCCn1c(=O)c(C(=O)NC(C)c2ccccc2)c(O)c2ccccc21 (stereo unspecified),9,5,-4,11,8,i,-19,-2,
O=C(c1ccccc1)c1ccccc1C(=O)N1CCCC1,-44,3,6,-8,-16,i,-2,2,
Cc1cc(C)cc(N(CCC#N)C(=O)COC(=O)CNC(=O)c2sc3ccccc3c2Cl)c1,-5,1,-1,.,0,i,-1,.,
O=C(COC(=O)CNC(=O)c1ccccc1)Nc1nc(-c2ccccc2)cs1,-25,-1,6,9,-1,i,5,-3,
Cc1c(O)c2cccnc2[nH]c1=O,-3,0,-1,-15,9,i,.,-3,

# Fetched by compound from the entries so far, two records:
SMILES,HIV Env fusion,MT1-MMP act inh,MT1-MMP act inh RFP,PABP polyA inh,CSC inhib,Rce1 inhib,Yeast UUG start,eIF4H inh,others
C[C@H](NC(=O)CCC1CCC(=O)N1)c1ccccc1 (stereo partly specified),-7,1,1,.,-13,i,-8,.,
O=C(c1ccccc1)c1ccccc1C(=O)N1CCCC1,-44,3,6,-8,-16,i,-2,2,

# Following part
SMILES,HIV Env fusion,MT1-MMP act inh,MT1-MMP act inh RFP,PABP polyA inh,CSC inhib,Rce1 inhib,Yeast UUG start,eIF4H inh,others
COc1ccc2sc3ccccc3c(=O)c2c1,-374,-4,-3,3,-4,i,-15,-6,
CC(=O)N1CCc2cc(S(=O)(=O)NCCC(=O)N3CCN(c4ccccn4)CC3)ccc21,-15,0,0,3,-9,i,-15,-3,
CS(=O)(=O)Nc1ccc(C2=NN(S(C)(=O)=O)C(c3ccc4nccnc4c3)C2)cc1 (stereo unspecified),2,-36,-1,-20,-7,i,-4,-3,
CCOC(=O)COc1ccc2c(c1)C(=O)CC1(CCN(C(C)=O)CC1)O2,.,2,3,-3,-9,i,-20,-6,
COc1ccc(/C=N/n2c(C)nnc2C)c(OC)c1,.,2,3,9,5,i,-16,-8,
CC(C)c1csc(CN2CCC(N3CCC(C(=O)NCC4CCCO4)CC3)CC2)n1 (stereo unspecified),8,3,6,2,-9,i,.,14,
O=C(Cc1ccccc1Cl)N1CCN(c2ncccn2)CC1,13,3,2,2,7,i,-5,0,
